HPGD inh: qHTS Assay for Inhibitors of HPGD (15-Hydroxyprostaglandin Dehydrogenase); 15-hydroxyprostaglandin dehydrogenase [NAD(+)] (Homo sapiens), P15428; purified HPGD, NADH fluorescence kinetic, PGE2 substrate; Potency, µM, for the others: at the top dose activity change, negative = inhibition, actives largely listed as inhibitors; 150,000 compounds, 4.3% hits; AID 894, 2007; active = well fitted inhibition curve with a large enough effect (not every such curve was filed as active); inconclusive = small, poorly fitted or top-dose-only effect, or another doubt; inactive = no such curve, though single readings can be large or run the other way;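 note: top concentration of the series not given in the record; plate controls included wells without enzyme; inactives centre near -10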
Target sequence (P15428 whole entry, looked up): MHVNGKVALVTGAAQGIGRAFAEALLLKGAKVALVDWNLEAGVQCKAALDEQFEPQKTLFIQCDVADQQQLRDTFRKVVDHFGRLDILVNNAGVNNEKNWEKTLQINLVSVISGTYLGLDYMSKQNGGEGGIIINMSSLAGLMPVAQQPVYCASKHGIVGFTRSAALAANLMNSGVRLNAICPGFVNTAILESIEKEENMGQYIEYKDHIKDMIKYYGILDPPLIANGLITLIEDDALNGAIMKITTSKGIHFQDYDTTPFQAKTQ
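NADH formation kinetics: reaction with 30 uM PGE2 and 1 mM NAD+ (final), 20 nM enzyme, Tris-HCl pH 8 with Tween 20, after 15 min compound preincubation at room temperature. Fluorescence change, last versus first of five reads.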
Starred values were filed as active, the others as inactive; ? = inconclusive. % is set by controls: 0 for no effect and ±100 for the full control effect; potency is the fitted concentration of half-maximal effect. This is a subset; rates above refer to the full screens.

Start of the data: the first 2 records as a preview:
SMILES | HPGD inh
O=C(NCCN1CCCC1)c1ccc(CS(=O)(=O)c2c(Cl)cccc2Cl)o1 | -15.9%
COCc1nnc(NC(=O)C(C)C)s1 | 0.3%

The list itself, repeating the preview:
SMILES | HPGD inh
O=C(NCCN1CCCC1)c1ccc(CS(=O)(=O)c2c(Cl)cccc2Cl)o1 | -15.9%
COCc1nnc(NC(=O)C(C)C)s1 | 0.3%
O=C(CSc1nnc(CNC(=O)c2ccccc2F)o1)NCCc1ccccc1 | -9.2%
O=S(=O)(c1ccccc1)N1C2CCC1CC(O)(c1cccnc1)C2 (configuration not stated) | -13.7%
CC(=O)Nc1cccc(NC(C)=C(C#N)C#N)c1 | -6.3%
O=C(NCC(=O)N(Cc1ccccc1)C(C(=O)NC1CCCC1)c1cccnc1)c1ccco1 (configuration not stated) | -8.9%
CC(=O)Nc1ccccc1OCC(=O)NC(C)c1ccccc1 (configuration not stated) | -4.3%
Cc1cc(C(=O)CSc2nc(N)cc(N)n2)c(C)n1-c1cccc(F)c1 | 1.1%
CCOc1ccc(Nc2oc(-c3cccs3)nc2C#N)cc1 | ?
O=C(c1ccc(NC2=NC3CS(=O)(=O)CC3S2)cc1)N1CCc2ccccc2C1 (configuration not stated) | -22.3%
CCC(=O)c1ccc(OCC(O)CN2CCN(S(=O)(=O)N3CCCCC3)CC2)cc1 (configuration not stated) | -3.9%
COc1ccc(-c2nc(NC(=O)CSc3nnc4ccccn34)ns2)cc1 | ?
O=C(NCCN1CCOCC1)c1cnn2c(-c3ccccc3)cc(-c3ccccc3)nc12 | ?
CC(C)CN1CC2(CCN(C(=O)c3csnn3)CC2)C1 | -2.8%
CN(C)c1ccc(Nc2nc(N)c([N+](=O)[O-])c(N3CCOCC3)n2)cc1 | -9.9%
O=C(CCNS(=O)(=O)c1ccccc1F)NCc1ccc2c(c1)OCO2 | -5.5%
O=C(NCCN1CCOCC1)c1ccc(=O)oc1 | -23.7%
Cc1csc(NC(=O)CCc2c(C)nc3cc(-c4ccc(Cl)cc4)nn3c2C)n1 | ?
COc1cccc(-n2c(Cc3cc(=O)[nH]c(=O)[nH]3)nnc2SCC(=O)Nc2ccccc2)c1 | -1.7%
Cc1c(Cl)cccc1NC(=O)CCC(=O)N/N=C/c1ccc[nH]1 | -11.6%
Cc1cc(C)cc(N(C(=O)CNS(=O)(=O)c2ccccc2)C(C(=O)NCc2ccccc2)c2ccc(C)o2)c1 (configuration not stated) | -12.9%
O=C(CNC(c1ccccc1)c1ccccc1)Nc1ccc(F)cc1 | -9.9%
COc1ccc2cc(C(c3nnnn3CC3CCCO3)N3CCOCC3)c(=O)[nH]c2c1 (configuration not stated) | -8.1%
CC=C(/C(=C/C)c1ccc(O)cc1)c1ccc(O)cc1 | -16.9%
O=C(Cc1n[nH]c(=O)[nH]c1=O)N/N=C/c1ccccc1 | -2.9%
Cc1cccc(NC(=O)c2ccc(N3CCCCC3)c([N+](=O)[O-])c2)n1 | ?
CCOC(=O)Cn1nnc2c(sc3nc4c(c(-c5ccc(Cl)cc5)c32)CCC4)c1=O | -7.4%
O=C(COC(=O)c1cnccn1)c1ccc(OC(=O)c2ccccc2)cc1 | -5.7%
CCC(Sc1nc2c(cnn2-c2ccc(Cl)cc2)c(=O)[nH]1)C(=O)OC (configuration not stated) | -16.2%
O=[N+]([O-])c1ccc(N/N=C/c2c[nH]c3ccccc23)c(S(=O)(=O)Nc2ccc(Cl)cc2)c1 | 3.3%
Cc1cc(C)cc(NC(=O)Nc2ccc3c(c2)N(C)C(=O)CS3)c1 | -1.7%
CCOc1cc(S(=O)(=O)NCCc2cccc(C)c2)c(OCC)cc1-n1cnnn1 | ?
CC1(C)CC(=O)/C(=C(\O)Cc2ccccc2)C(=NCCCCCC(=O)O)C1 | -15.0%
Cc1ccc(C)c(NC(=O)CCN2CCOCC2)c1 | -12.8%
Cc1ccc(S(=O)(=O)CC2CSc3nc4ccccc4n32)cc1 (configuration not stated) | -8.6%
C=CCc1cccc2cc(C(=O)N3CCN(C(=O)c4ccco4)CC3)c(=O)oc12 | -13.9%
Cc1ccc2c(c1)nnn2C1CCN(S(=O)(=O)c2ccc(C(=O)NC3CCCC3)cc2)CC1 | -8.4%
CCOc1cccc2c1OC(c1cc(OC)c(OC)c(OC)c1)N1N=C(c3ccc(C)o3)CC21 (configuration not stated) | -23.7%
CSc1nc(N)nc(SCC(=O)c2ccccc2)c1C#N | -28.7%
COc1ccccc1CN(Cc1cc2cc3c(cc2[nH]c1=O)OCCO3)Cc1nnnn1Cc1ccco1 | ?
O=C(CN1C(=O)C2C3c4ccccc4C(c4ccccc43)C2C1=O)Nc1ccccc1C(=O)O (configuration not stated) | -19.2%
CCOC(=O)c1cc(=O)n2[nH]c(-c3ccc(C)cc3)cc2n1 | ?
Cc1ccc(NC(=O)CCn2nc(C)cc2C)c(C)c1 | 1.6%
CC(=O)Nc1ccc(C(=O)NC(CC(=O)O)c2ccc(Cl)cc2)cc1 (configuration not stated) | -13.3%
[2H]c1c([2H])c([2H])c(-c2nc(N3CCCCCC3)sc2C(=O)c2ccccc2)c([2H])c1[2H] | -22.6%
COCCCNC(=O)Cn1ncc2ccsc2c1=O | -4.5%
Cc1csc(NC(=O)c2cccs2)n1 | ?
O=C(Nc1nc2nc(-c3ccccc3)cc(=O)n2[nH]1)c1ccccc1 | -8.7%
Cc1ccc(C)c2c3c([nH]c12)-c1nonc1CC3 | -22.0%
C/C=C/C1=CC2=CC(=O)C(C)(OC(=O)c3c(C)cc(O)cc3O)C(=O)C2=CO1 (configuration not stated) | -5.4%
(further entries)
SMILES | HPGD inh
O=S(=O)(Nc1nc2ccccc2nc1Cl)c1ccc(Cl)cc1 | -10.3%
O=C(COC(=O)C12CC3CC(CC(O)(C3)C1)C2)Nc1ccccc1OC(F)F | -17.6%
Cc1ccc(OCCSc2nc(NC(C)C)nc(NC(C)C)n2)cc1 | -8.0%
COc1ccccc1C1/C(=C(/O)c2ccc(OC(C)C)cc2)C(=O)C(=O)N1c1cc(C)on1 (configuration not stated) | -6.4%
CCCn1nc2cc(C(=O)NCc3ccc(C)cc3)ccc2c1OC | ?
O=C(NNS(=O)(=O)c1ccc2ccccc2c1)c1cccnc1 | 3.7%
C#CCOC(=O)c1csc2nnsc12 | -18.4%
CC1=C(C(N)=O)C(c2ccccc2F)NC(=O)N1 (configuration not stated) | -8.5%
CCc1cc2c(N[C@@H](C)C(=O)O)ncnc2s1 | ?
CCCCOc1ccc2ccccc2c1C=O | -27.9%
N#C/C(=C\c1ccccc1[N+](=O)[O-])c1nc(C2CC2)cs1 | -26.7%
CCCn1c(-c2ccc(F)cc2)nc2c(NC3CC4CCC(C3)N4C)nc(C)nc21 (configuration not stated) | ?
O=C(CN1C(=O)c2ccccc2C1=O)NCC(=O)OCC(=O)c1ccc(Br)cc1 | -13.5%
COc1ccc(N(CC(=O)Nc2ccc(OC)c(Cl)c2)S(=O)(=O)c2c(C)noc2C)cc1 | -7.2%
Cc1ccc2nc(SCC(=O)N(CC(C)C)c3c(N)n(CC(C)C)c(=O)[nH]c3=O)[nH]c2c1 | -9.2%
O=c1c[n+](CCCC[n+]2cc(=O)o[nH]2)[nH]o1 | -4.7%
O=C(NC1CCCCC1)C(c1ccco1)N(C(=O)C(F)(F)F)C1CC1 (configuration not stated) | -2.7%
O=C1CCCc2nc(N3CCc4ccccc43)ncc21 | -27.8%
Cc1ccc(CNC(=O)C(Cc2ccccc2)NS(=O)(=O)c2cccs2)cc1 (configuration not stated) | -8.3%
CCOC(=O)c1nc(-c2ccc3c(c2)OCO3)[nH]c1C | -11.1%
CCCC(=O)N1CCN(Cc2ccc3c(c2)OCO3)CC1 | -8.3%
CC(=O)NC(NC(C)=O)c1cccc(OCc2ccccc2)c1 | -1.2%
O=C(COc1ccccc1)N(Cc1cc2ccccc2[nH]c1=O)CC1CCCO1 (configuration not stated) | ?
O=C(OCC#CCSc1nc2ccccc2o1)c1cc2ccccc2o1 | -7.2%
CC1(C)OC(=O)N(Cc2ccco2)C1(C)O (configuration not stated) | -16.7%
Cc1cc(Cl)ccc1Oc1nc(-c2ccc(F)cc2)ccc1C#N | ?
CCN1CCN(C(=S)NCC(C)C)CC1 | -3.6%
CCC(C)[C@H](NC(=O)OC(C)(C)C)C(=O)N/N=C/c1ccc2nccnc2c1 (some centres not stated) | -1.8%
O=C(O)c1ccc(COCC(F)(F)F)cc1 | -12.8%
O=C(CCNC(=O)Cn1cnc2ccccc2c1=O)NCCC1=CCCCC1 | -7.1%
O=C(Nc1ccc(Cl)cc1)N1CCC(c2nc(-c3ccccc3Cl)no2)CC1 | -14.5%
COc1ccc(NC(=S)N(CCN(C)C)C(C)c2ccco2)cc1Cl (configuration not stated) | -13.3%
Cc1ccc2nc(C)cc(NCCO)c2c1 | -12.8%
Cc1ccc(Cl)cc1N1CCN(C(=O)C2CCCN(S(=O)(=O)c3cnc[nH]3)C2)CC1 (configuration not stated) | 2.3%
COc1cc(C2CC(=O)C=C(O)C2)cc(OC)c1OC (configuration not stated) | -4.7%
COC(=O)c1c(C(=O)OC)c2n(c1C)CCC2 | -4.9%
CNC(=O)COc1ccccc1C(=O)Nc1ccc2c(c1)oc1ccccc12 | ?
Cc1ccc(S(=O)(=O)C/N=C(/NC(=S)N(c2ccccc2)c2ccccc2)c2ccccc2)cc1 | 31.6µM*
COCCn1nnnc1CN1CCN2CCCC2C1 (configuration not stated) | -0.4%
COc1cccc(-c2cncnc2NCc2ccccc2)c1 | 14.1µM*
CCC(NC(=O)Nc1nnc(C(F)(F)F)s1)(C(F)(F)F)C(F)(F)F | -10.3%
O=C(COc1ccccc1)NC(=S)Nc1cccc([N+](=O)[O-])c1 | 28.2µM*
CCC(C)NCCCCOc1cc(C)cc(C(C)C)c1 (configuration not stated) | -10.5%
COc1ccc(N(CCC#N)S(=O)(=O)c2ccc(Cl)cc2)cc1 | -11.3%
CCN(C(=O)c1cc2ccccc2oc1=O)c1cccc(C)c1 | ?
COc1ccc(C2=NOC(C(=O)NC(C)C)C2)cc1 (configuration not stated) | -4.7%
CCOC(=O)CN1CC23C=CC(O2)C(C(=O)NC2CCCC2)C3C1=O (configuration not stated) | -13.4%
CCOc1cc(-c2noc(N)c2C(=O)OC)cc(OCC)c1OCC | -1.8%
CC(=O)Oc1ccc(C)cc1N1C(=O)c2ccc(C(=O)O)cc2C1=O | -12.9%
Cn1c(/N=C/c2cc(Cl)ccc2O)nc2ccccc21 | -14.2%
More results:
SMILES | HPGD inh
Cc1ccccc1NC(=O)/C=C/c1ccc([N+](=O)[O-])s1 | -10.2%
O=C1CC(C(=O)Nc2ccc(F)cc2)S/C(=N\N=C\c2ccco2)N1 (configuration not stated) | -26.8%
Cc1cc(C)nc(SCc2ccc(C(=O)NN=C3C4CC5CC(C4)CC3C5)cc2)n1 | -10.3%
O=C(CCNS(=O)(=O)c1cccc2nsnc12)NCc1cccs1 | -2.5%
C=C(C)COc1ccc(-c2n[nH]c(C)c2-c2ccc(OC)cc2)c(O)c1 | -23.2%
Cc1nn(C(=O)c2cccc([N+](=O)[O-])c2)c(C)c1Sc1ccccc1 | -7.0%
CCSc1nnc(CNc2ccc(C)cc2)n1C | 1.0%
CCC/C(=N\NC(=O)c1csc(C)c1C)c1cccs1 | ?
COC(=O)c1ccc(C(NC(=O)OCc2ccccc2)/C(C)=C/[C@@H](C)C(=O)Nc2ccc(OC)cc2)cc1 (some centres not stated) | -14.5%
C/C=C/C(=O)OCC(=O)Nc1ccc(OC)c(Cl)c1 | -14.3%
CCc1nc(N2CCN(Cc3ccc4c(c3)OCO4)CC2)c2oc3ccccc3c2n1 | ?
CCOC(=O)c1sc(NC(=O)Nc2ccc(Cl)cc2)nc1C | ?
CCN(CC)C(=O)CSc1nc2ccc(NC(=O)CSc3nnc(COc4ccccc4C)n3C)cc2s1 | 20µM*
Cc1cc(C=O)c(C)n1-c1ccc(N2CCOCC2)cc1 | 0.2%
COc1cccc(C(=O)N2CCN(C(=O)c3cccs3)CC2)c1OC | -9.4%
CCN(CC)S(=O)(=O)c1ccc(Cl)c(C(=O)N2CCc3ccccc32)c1 | -11.1%
O=C1c2ccccc2C(=O)N1c1cccnc1 | -3.5%
COc1ccccc1CNC(=O)C1CCN(Cc2nc(-c3cccc(Cl)c3)oc2C)CC1 | -5.4%
CCOC(=O)CN1C(=O)N[C@@H](c2cccc(F)c2)C(C(C)=O)=C1C | 3.6%

Some of these compounds in order of the HPGD inh value, falling:
SMILES | HPGD inh
CCOC(=O)CN1C(=O)N[C@@H](c2cccc(F)c2)C(C(C)=O)=C1C | 3.6%
O=C1c2ccccc2C(=O)N1c1cccnc1 | -3.5%
COc1cccc(C(=O)N2CCN(C(=O)c3cccs3)CC2)c1OC | -9.4%
CCN(CC)S(=O)(=O)c1ccc(Cl)c(C(=O)N2CCc3ccccc32)c1 | -11.1%

6 consecutive records already listed:
SMILES | HPGD inh
O=C(NCCN1CCCC1)c1ccc(CS(=O)(=O)c2c(Cl)cccc2Cl)o1 | -15.9%
COCc1nnc(NC(=O)C(C)C)s1 | 0.3%
O=C(CSc1nnc(CNC(=O)c2ccccc2F)o1)NCCc1ccccc1 | -9.2%
O=S(=O)(c1ccccc1)N1C2CCC1CC(O)(c1cccnc1)C2 (configuration not stated) | -13.7%
CC(=O)Nc1cccc(NC(C)=C(C#N)C#N)c1 | -6.3%
O=C(NCC(=O)N(Cc1ccccc1)C(C(=O)NC1CCCC1)c1cccnc1)c1ccco1 (configuration not stated) | -8.9%
